High-throughput results deposited in PubChem by National Center for Advancing Translational Sciences (NCATS).
Vaccinia Venus = qHTS for Stage-Specific Inhibitors of Vaccinia Orthopoxvirus: Venus Reporter Primary qHTS | 0.46% of 330,000 active | Vaccinia virus Venus reporter expression, fluorescence | Potency, µM (highest dose often 36.5 µM), for the others: top-dose activity change, negative = inhibition, usual class: inhibitors; active means well fitted inhibition curve with a large enough effect; inconclusive means small, poorly fitted or top-dose-only effect; inactive means no such curve, though single readings can be large or run the other way; tested in A549 cells; note: nearly all actives have a fitted effect of over 30% in size; inactives centre near -10
VACV mCherry inh = qHTS for Stage-Specific Inhibitors of Vaccinia Orthopoxvirus: mCherry Reporter Primary qHTS. Vaccinia virus mCherry reporter infection, fluorescence; about a quarter of the inactives have no number. Potency, µM (top dose mostly 36.5 µM), without a hit: at the highest dose activity change, negative = inhibition, actives largely listed as inhibitors. 0.63% of 310,000 active. AID 720579, 2013; active = well fitted inhibition curve with a large enough effect; inconclusive = small, poorly fitted or top-dose-only effect; inactive = no such curve, though single readings can be large or run the other way; tested in A549 cells; note: nearly all actives have a fitted effect of over 35% in size; inactives centre near -10
The depositor's hits bear a star; i = inactive; u = inconclusive; x = no result given; & = joins results of further samples; [ ] = remark or other dose. % is set by controls: 0 for no effect and ±100 for the full control effect; potency is the fitted concentration of half-maximal effect.

SMILES	Vaccinia Venus	VACV mCherry inh
CCCNC(=O)CN1CCN(c2ncc(NC(=O)c3ccc(Cl)cc3)cc2C(=O)O)CC1	8%	-3%
O=C(Nc1cnccn1)Nc1ccccc1Cl	-7%	i
O=C(O)Cc1sc(Nc2ccccc2)nc1-c1ccc(Cl)cc1	-3%	-5%
Cc1ccc(C(=O)Nc2ccc(S(=O)(=O)N3CCCC3)cc2)cc1	-2%	6%
CCOC(=O)[C@H]1[C@H]2COc3ccc(OC)cc3[C@@H]2N2C(=O)[C@H](C)NC(=O)[C@@]12C	-1%	29%
Cn1cncc1C#Cc1ccc2cc(CCCO)oc(=O)c2c1	-18%	-2%
Cc1ccc2nc(-c3ccc(O)cc3)oc2c1	-6%	-29%
CCn1cc(C(=O)NCc2ccccc2)c(=O)c2cc(S(=O)(=O)N3CCCCC3)ccc21	-18%	-9%
Cc1ccc(C(=O)Nc2scc(-c3ccccc3)c2C(=O)O)cc1	-8%	i
CCCc1cc(=O)oc2cc3oc(C)c(C)c3cc12	11%	-7%
Cc1cccc(NC(=S)NCCc2ccccn2)c1	-12%	i
COc1ccc(N(CC(=O)NC2CC3CCC2C3)S(=O)(=O)c2ccc(C)c([N+](=O)[O-])c2)cc1 (configuration not stated)	3%	u
COc1ccc(C(CCNCc2ccc(N(C)C)cc2)c2ccccc2OC)cc1 (configuration not stated)	-26%	u
Clc1cccc(Cc2c(-c3ccccc3)nc3c4ccccc4ccn23)c1	8%	39%[activator]
CCCCNC(=O)c1[nH]c(C)c(C(C)=O)c1C	-10%	i
C=CCn1c(O)c(C=NCCN(C)C)c(=O)[nH]c1=O	-11%	x
CCOC(=O)c1c(NC(=O)CC2SC(N)=NC2=O)sc2c1CCC(C)C2 (configuration not stated)	-8%	i
CN1C(=O)/C(=C/c2ccccc2Cl)Sc2ccc(C(=O)NCc3cccnc3)cc21	-22%	-10%
O=C(c1cc(C(=O)c2ccco2)cc(C(=O)c2ccco2)c1)c1ccco1	3%	2%
Cc1ccc2nccnc2c1	u	u
NC1=NC2CS(=O)(=O)CC2S1 (configuration not stated)	-4%	-8%
Cc1noc(C)c1NC(=O)N(C)C[C@@H]1OCc2cnnn2CCCC(=O)N([C@@H](C)CO)C[C@H]1C	-6%	i
CCCCN1C(=N)N([C@@H](C)CN2CCC[C@H]2CN2C(N)=NC[C@@H]2Cc2ccccc2)C[C@H]1Cc1ccccc1	-9%	i
COCCNC(=O)C1CC2Cn3c(nc4cc5ccccc5cc43)C2N1C (configuration not stated)	-4%	i
CSc1ncccc1C(=O)OCC(=O)N(C)Cc1ccc(C)cc1	-13%	i
CCOc1cc2c(cc1OCC)C(CC(=O)O)N(C(=O)Nc1ccccc1C(F)(F)F)CC2 (configuration not stated)	-15%	i
COc1cc(-c2coc3c(C(=O)NCc4ccc(N(C)C)cc4)cccc23)ccc1O	-16%	i
CCOC(=O)Cn1c(=O)n(C2CCCCC2)c2nc(-c3ccc(CC)cc3)nc(C(N)=O)c21	-21%	-16%
O=C(N/N=C/c1cccnc1)c1cccc(NC(=O)c2ccc(Cl)cc2)c1	-1%	i
CCOc1ccc(C2CC(c3ccc(CC)cc3)Nc3nc(N)nn32)cc1 (configuration not stated)	-5%	-4%
COc1ccc(S(=O)(=O)N2CCN(C(=O)N(C)C)C2C)cc1 (configuration not stated)	-1%	6%
O=C(NC(=S)Nc1ncccn1)c1ccc(Cl)cc1Cl	-11%	-4%
CC1CCN(S(=O)(=O)c2ccc3c(c2)N(CC(=O)NC(C)C)C(=O)CS3)CC1	2%	-9%
Cn1c(O)c(C=NCc2ccco2)c(=O)n(C)c1=O	7%	-7%
COc1ccc(NC(=O)c2cc(C3CCCCN3C(=O)C3CC3)on2)c(C)c1 (configuration not stated)	-17%	i
COC(=O)CCCC(=O)N1CCCC(CCC(=O)NCc2ccc(F)c(F)c2)C1 (configuration not stated)	-4%	i
CCC1CN(C(=O)N2CCC(C(=O)Nc3ccccc3OC)CC2)c2ccccc2O1 (configuration not stated)	-6%	-10%
Cc1cc2c(ncn2C(C)C)c(NS(=O)(=O)c2ccc(F)cc2)c1C	-3%	-13%
CC(C)(C)C(=O)NC(n1cnc2c(N3CCOCC3)ncnc21)C(Cl)(Cl)Cl (configuration not stated)	-5%	-25%
COc1cc(C(C)=O)ccc1Oc1ncnc2c1cnn2-c1ccc(C)c(C)c1	-19%	u
COc1ccc(Br)c2oc(SC)cc(=O)c12	10%	25%
Cc1sc2c(c1C)c(=O)n(-c1ccc(Cl)cc1)c(=O)n2CC(=O)c1ccccc1	1%	1%
COc1ccccc1NS(=O)(=O)c1ccc(Cl)c(NC(=O)C(C)N2C(=O)c3ccccc3C2=O)c1 (configuration not stated)	-5%	-10%
COc1ccc(C2c3[nH]c4ccccc4c3C[C@H]3C(=O)N(c4ccccc4C(=O)N4CCC[C@H]4C(=O)O)C(=O)N23)cc1 (some centres not stated)	-1%	1%
COC(=O)c1cn(C(=O)c2cc(OC)c(OC)c(OC)c2)c2ccccc12	-23%	u
CN(C)P(=O)(N(C)C)N1CC1	-2%	i
O=C(CCC(=O)c1ccc(F)cc1)Nc1ccc(Cl)cc1	-6%	-13%
CCN(CC)c1ccc(NC(=O)c2ccc3c(c2)c(C)c(C)n3C)cc1	-29%	u
Cc1ccc(S(=O)(=O)N2Cc3cnnn3-c3ccccc3C2C#N)cc1 (configuration not stated)	4%	-10%
CCOC(=O)C1CCN(C(=O)CN(c2ccc(Oc3ccccc3)cc2)S(C)(=O)=O)CC1	-4%	-7%
Nc1cccnc1-n1nc(C(F)(F)F)cc1C(F)(F)F	-1%	0%
O=C(O)CN(c1ccccn1)S(=O)(=O)c1ccc(Cl)cc1	-15%	i
CN(C)CCC(c1ccc(Cl)cc1)c1ccccn1 (configuration not stated)	-19%&-11%	-2%&-19%
COc1ccc(Oc2cn[nH]c2-c2ccc(OC)cc2O)cc1	-23%	-6%
CC(=O)c1cc(C#N)c(N2CCN(C)CC2)nc1C	-7%	-6%
CCOc1ncccc1C(=O)OCc1c(F)cccc1Cl	-13%	-16%
CC1CCN(S(=O)(=O)c2cc3c4c(c2)CC(=O)N4CCC3)CC1	-15%	-10%
CN(CC(=O)Nc1cccc(F)c1)C(=O)c1ccccc1Cc1ccccc1	-26%	-20%
O=C(CSc1ccc(-c2ccccn2)nn1)N1CCCCC1	5%	10%
Cc1ccc(CN2C(=O)CCC2(C)c2nnnn2-c2ccc3c(c2)OCCO3)cc1 (configuration not stated)	6%	-8%

17 entries already listed, sorted by molecular weight, lowest first.
SMILES	Vaccinia Venus	VACV mCherry inh
CN(C)P(=O)(N(C)C)N1CC1	-2%	i
CN(C)CCC(c1ccc(Cl)cc1)c1ccccn1 (configuration not stated)	-19%&-11%	-2%&-19%
COc1ccc(Br)c2oc(SC)cc(=O)c12	10%	25%
CCOc1ncccc1C(=O)OCc1c(F)cccc1Cl	-13%	-16%
COc1ccc(Oc2cn[nH]c2-c2ccc(OC)cc2O)cc1	-23%	-6%
O=C(CSc1ccc(-c2ccccn2)nn1)N1CCCCC1	5%	10%
O=C(O)CN(c1ccccn1)S(=O)(=O)c1ccc(Cl)cc1	-15%	i
CC1CCN(S(=O)(=O)c2cc3c4c(c2)CC(=O)N4CCC3)CC1	-15%	-10%
CCN(CC)c1ccc(NC(=O)c2ccc3c(c2)c(C)c(C)n3C)cc1	-29%	u
Cc1ccc(S(=O)(=O)N2Cc3cnnn3-c3ccccc3C2C#N)cc1 (configuration not stated)	4%	-10%
COC(=O)c1cn(C(=O)c2cc(OC)c(OC)c(OC)c2)c2ccccc12	-23%	u
CN(CC(=O)Nc1cccc(F)c1)C(=O)c1ccccc1Cc1ccccc1	-26%	-20%
Cc1ccc(CN2C(=O)CCC2(C)c2nnnn2-c2ccc3c(c2)OCCO3)cc1 (configuration not stated)	6%	-8%
Cc1sc2c(c1C)c(=O)n(-c1ccc(Cl)cc1)c(=O)n2CC(=O)c1ccccc1	1%	1%
CCOC(=O)C1CCN(C(=O)CN(c2ccc(Oc3ccccc3)cc2)S(C)(=O)=O)CC1	-4%	-7%
COc1ccccc1NS(=O)(=O)c1ccc(Cl)c(NC(=O)C(C)N2C(=O)c3ccccc3C2=O)c1 (configuration not stated)	-5%	-10%
COc1ccc(C2c3[nH]c4ccccc4c3C[C@H]3C(=O)N(c4ccccc4C(=O)N4CCC[C@H]4C(=O)O)C(=O)N23)cc1 (some centres not stated)	-1%	1%

The list continues.
SMILES	Vaccinia Venus	VACV mCherry inh
C/C(Cc1ccccc1)=N\NC(=O)c1cccnc1	-6%	-20%
CCCCn1nnnc1C1(C)CCC(=O)N1CCc1c[nH]c2ccccc12 (configuration not stated)	-5%	-9%
CCc1c(C2(O)CCCCC2)[nH]c2cc(C(F)(F)F)ccc12	u	u
COc1ccc(C(N)c2csc(NC(=O)Nc3ccccc3C(C)(C)C)n2)cc1 (configuration not stated)	-15%	1%
CC1=C(C(=O)O)N2C(=O)C(NC(=O)CCCC(=O)O)C2SC1 (configuration not stated)	-9%	i
COC(=O)CCC(=O)Nc1sc(Cc2ccccc2)c(C)c1C(N)=O	-6%	i
CC(OC(=O)c1cccc(NS(C)(=O)=O)c1)C(=O)Nc1ccc(N2CCOCC2)cc1 (configuration not stated)	-4%	-11%
OCCOCCO	-4%	3%
CCn1cc(CN2CCCC(C(=O)Nc3ccc(-c4cscn4)cc3)C2)cn1 (configuration not stated)	-12%	i
CCc1ccc(N2C(=O)NC(=O)C(Cc3ccc(OC)cc3OC)C2=O)cc1 (configuration not stated)	-9%	-16%
CCOC(=O)N1CCN(C(=O)COc2cccc3c2CCN(Cc2ccccc2C)C3=O)CC1	-23%	i
CCOc1ccc(NC(=O)C/C(N)=N/O)cc1	-14%	-16%
CCC(C)NC(=O)CCn1c(=O)c2cccn2c2ccc(F)cc21 (configuration not stated)	-3%	-13%
O=C(NCc1ccccc1)C(c1cccnc1)N(Cc1ccco1)C(=O)c1ccccn1 (configuration not stated)	-11%	-6%
CCOc1ccc2nc(SCC(=O)NC(=O)NCc3ccco3)[nH]c2c1	-20%	x
Cc1ccccc1-n1ncc(C(C)NC(=O)c2ccco2)c1C (configuration not stated)	-11%	i
COc1ccc(C(CNC(=O)c2oc3ccccc3c2C)N2CCCC2)cc1 (configuration not stated)	-23%	u
O=C1C2CCCC1C(N1CCCC1)CC2 (configuration not stated)	-24%	-22%
CC(=O)Oc1ccc(/C=C(\NC(=O)c2ccco2)C(=O)Nc2ccc(C(C)=O)cc2)cc1	7%	i
CCCC[C@@H]1CNC(=O)C(=O)N1CCCC	-3%	1%
O=C(COC(=O)Cc1ccccc1)Nc1cccnc1Cl	-10%	i
CN(C)Cc1c(C(=O)N/N=C/CCc2ccccc2)nnn1-c1nonc1N	-3%	-22%
COC(=O)C(NC(=O)CCc1c(C)nc2cc(-c3cccc(F)c3)nn2c1C)C(C)C (configuration not stated)	-4%	-7%
Cc1ccc(NC(=O)c2oc3ccccc3c2C)c([N+](=O)[O-])c1	-13%	-1%
COC(=O)c1ccc(CNC(=O)C2CCC(=O)N(CCc3ccccc3)C2)cc1 (configuration not stated)	-22%	-4%
NCC(c1ccccc1)c1c[nH]c2ccccc12 (configuration not stated)	-17%	-16%
COc1ccc(NC(=O)CSC2=NN3CCCC(=O)N=C3S2)c(OC)c1	-12%	i
O=C1c2cc(S(=O)(=O)N(CCO)CCO)ccc2-c2ccc(S(=O)(=O)N(CCO)CCO)cc21	-2%	i
CCc1nnc(NC(=O)c2ccc(-c3ccccc3F)o2)s1	2%	i
CCOC(=O)C1CCCN(C(=O)CN(c2ccc(OC)cc2)S(=O)(=O)c2c(C)noc2C)C1 (configuration not stated)	-12%	-16%
CCc1ccccc1N(CC(=O)N1CCN(c2ccccc2F)CC1)S(C)(=O)=O	-18%	0%
CC1CCCCN1CCNC(=O)c1ccc2c(=O)n(CCc3ccccc3)c(=O)[nH]c2c1 (configuration not stated)	-11%	-14%
CCCCN(Cc1cc2ccccc2[nH]c1=O)C(=O)c1cccc(Cl)c1	-24%	-2%
O=C1OCCC1Sc1nnc2c(n1)[nH]c1ccccc12 (configuration not stated)	-11%	-3%
CCCOn1c(OCC(C)C)nc2ccccc2c1=O	-7%	-9%
COc1ccccc1C(=O)Nc1cccc(NC(=O)c2ccccc2C)c1	-16%	i
O=C(NCCNC(=O)c1ccc(-c2cccc(Cl)c2)o1)c1cnccn1	-9%	-5%
CCOc1ccc(NC(=S)N2CCC(NC(=O)c3ccco3)CC2)cc1	1%	-10%
Cc1ccc(OCC(=O)O)c(-n2nc3ccccc3n2)c1	-6%	x
COc1ccccc1OCCCOc1c(C)cc(C)cc1Br	-7%	-13%
CN(C)/C(=N\O)c1c(Cl)cccc1Cl	5%	-26%
Cc1ccc(S(=O)(=O)Nc2ccc(Cl)cn2)cc1C	-16%	i
CC12CCC(=O)N1C(C(=O)NNC(=O)c1ccccc1)CS2 (configuration not stated)	-17%	-17%
COc1ccc(C2CC(=O)c3cnc(N)nc3C2)c(OC)c1 (configuration not stated)	-5%	i
CC(C)(C)OC(=O)NCCCCCNC(=O)c1[nH]cnc1C(=O)N[C@@H](Cc1ccccc1)C(=O)OC(C)(C)C	0%	i
O=C(NCc1ccco1)c1ccc(Cn2c(=O)c3sccc3n(Cc3cccc(F)c3)c2=O)cc1	-6%	11%
O=C1CC(N2CCC(c3nc4ccccc4o3)CC2)C(=O)N1c1ccc(Cl)c(C(F)(F)F)c1 (configuration not stated)	2%	1%
O=C(CCNC(=O)c1ccco1)Nc1ccc(Cl)cc1	-6%	-4%
